# miR-21 reporter = qHTS Assay for Modulators of miRNAs and/orActivators of miR-21; 340,000 tested, under 10 active; HeLa miR-21 FLuc reporter, luciferase, 48 h; Potency, µM (doses to about 38.3 µM), for inactives: top-dose reporter change, positive = more light; active = well fitted rising curve with a large enough effect; inconclusive = small, poorly fitted or top-dose-only effect; inactive = no such curve, though single readings can be large or run the other way;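 note: % of control where 0% means no effect; miR-21 action dims this reporter so a rising signal means less miR-21 action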
#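 HeLa cells endogenously expressing miR-21, stably carrying CMV-driven firefly luciferase with a downstream miR-21 binding site, 2000 cells/well. Titrations up to approximately 40 uM, 48 hours; luciferase luminescence read.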
# Rango release inh = qHTS Assay for Inhibitors of RanGTP induced Rango (Ran-regulated importin-beta cargo) - Importin beta complex dissociation | Snurportin-1 (Homo sapiens) + GTP-binding nuclear protein Ran (Homo sapiens) + Importin … | Biochemical FRET Rango-importin beta, RanGTP-induced dissociation | Potency, µM (doses to about 46.1 µM), for the others: at the top dose activity change, negative = inhibition | 340,000 tested, 0.071% active | AID 540253, 2011; active means falling FRET ratio curve, often poorly fitted, with flat reads before Ran was added; inconclusive means other falling curves, or compound fluorescence or quenching; inactive means flat or rising ratio curve;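 note: potency is the fitted concentration of half-maximal effect; % of control where 0% means no effect; nearly all actives have a fitted effect of over 45% in size; -100% = wells without RanGTP and RCC1; the record marks most hits as doubtful in a second field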
#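 Recombinant Rango FRET biosensor (EYFP–snurportin 1 IBB–cerulean CFP10) at 0.1 uM premixed with 0.25 uM importin beta in PBS, 1 mM DTT, 0.02% Tween-20, 0.1% BSA. Compound added 5 min; RanGTP-RCC1 (0.6 uM Ran, 2 mM GTP, 0.2 uM RCC1) then triggers release, read at 45 min.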
# Rango complex inh = qHTS Assay for Inhibitors of Rango (Ran-regulated importin-beta cargo) - Importin beta complex formation; Rango CFP/YFP FRET sensor + importin beta, 45 min; Potency, µM (highest dose often 92.2 µM), for inactives: at the top dose inhibition of complex formation; 340,000 tested, 0.031% active; AID 540263, 2011; active = rising FRET ratio curve, often small or poorly fitted; inconclusive = mostly compound fluorescence or quenching in the first reads; inactive = flat curves in all reads;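 note: potency is the fitted concentration of half-maximal effect; 0% = DMSO wells and 100% = buffer wells lacking importin beta; nearly all actives have a fitted effect of over 15% in size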
#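 FRET biosensor (snurportin 1 IBB flanked by EYFP and cerulean), 50 nM, with compound 5 min, then 0.125 microM importin beta in PBS, 1 mM DTT, 0.02% Tween-20, 0.1% BSA. CFP/YFP ratio read after 45 min at room temperature; pre-read flags interference.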
# GLA inh pH 4.5 = qHTS Assay for Inhibitors of Human alpha-Galactosidase at pH 4.5 | purified enzyme, 4-MU-alpha-Gal fluorescence, pH 4.5 | activity change, negative = inhibition, % at 105 µM | 230,000 tested, under 10 active; inconclusive = small, poorly fitted or top-dose-only inhibition, or a rising curve; inactive = flat fitted curve, though single readings scatter; no compound was filed as active;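 note: 0% = full activity with enzyme and -100% = basal without enzyme; dose as in the result columns while the protocol names 77 µM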
# Target sequence (P06280 whole entry, looked up): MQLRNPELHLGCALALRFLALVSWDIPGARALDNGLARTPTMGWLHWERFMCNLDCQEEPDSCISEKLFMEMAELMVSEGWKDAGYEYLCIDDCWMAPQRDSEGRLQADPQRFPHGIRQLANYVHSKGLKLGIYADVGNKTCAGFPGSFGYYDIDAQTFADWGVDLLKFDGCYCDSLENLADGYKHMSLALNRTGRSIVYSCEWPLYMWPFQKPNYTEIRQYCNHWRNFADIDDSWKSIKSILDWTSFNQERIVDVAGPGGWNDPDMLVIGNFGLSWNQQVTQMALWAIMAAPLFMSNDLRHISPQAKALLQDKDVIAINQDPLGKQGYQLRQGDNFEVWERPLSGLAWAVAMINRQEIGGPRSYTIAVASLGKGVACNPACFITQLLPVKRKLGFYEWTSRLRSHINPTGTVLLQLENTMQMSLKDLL
# An asterisk follows results filed as active; ? = inconclusive; · = not tested or not shown; & = joins results of further samples. These rows are one share of the data; count on the stated rates, not on these rows.
SMILES,miR-21 reporter,Rango release inh,Rango complex inh,GLA inh pH 4.5
COc1cc(N/C(N)=N/c2nc(C)cc(C)n2)c(OC)cc1Cl,14.6%,28.7%,3.1%,0.4
CCC1=NN(C(=O)c2ccccc2O)C(O)(c2ccccc2)C1 (stereo not given),-3.9%,-6.5%,-2.7%,·
Cc1ccc(NC(=O)c2cc(S(=O)(=O)N3CCCC3)c[nH]2)c(C)c1,1.4%&-2.7%,3.5%,1.4%,·
CCOc1ccccc1Oc1coc2cc(OCC(=O)O)ccc2c1=O,-4.0%,10.4%,-0.2%,?
COC(=O)[C@H](Cc1ccccc1)NS(=O)(=O)N[C@@H](Cc1ccccc1)C(=O)OC,·,11.8%,3.4%,·
O=C(O)c1ccc(Cl)c(S(=O)(=O)N2CCCC2)c1,0.4%,10.7%,3.8%,2.3
O=C1CS(=O)(=O)N(Cc2cccc(F)c2)c2ccc(Br)cc21,·,3.1%,1.0%,·
Cc1noc(C)c1COc1cccc(C(=O)Nc2ccc(C#N)cc2)c1,3.5%,19.4%,-5.9%,-0.9
Cc1cc(C)cc(N2C(=O)CCN(Cc3ccccc3)C2=O)c1,-6.1%,-10.7%,-4.1%,1.1
CCCCN(C(=O)c1ccc2c(c1)OCCO2)c1c(N)n(CC(C)C)c(=O)[nH]c1=O,·,?,?,·
Nc1nc(Br)c2c(F)cccc2c1-c1ccc(F)cc1,-7.2%,-22.1%,?,-3.9
CC(=O)O[C@]1(C(C)=O)CCC2C3C=C(C)C4=CC(=O)CC[C@]4(C)C3CC[C@@]21C (stereo not given in full),-8.5%,5.3%,5.7%,·
O=C(CSc1nnc(-c2ccco2)n1Cc1ccccc1)c1ccc(F)cc1,-45.9%,-9.5%,-2.8%,-2.2
Cc1cccc(C(=O)NNC(=O)c2ccccc2)c1,-22.7%,-7.2%,-0.7%,0.6
O=C(Nc1cccc2ncccc12)C(c1ccccc1)c1ccccc1,7.0%,-8.8%,-2.9%,-1.2
O=C(N/N=C/c1ccc(Cl)cc1Cl)c1n[nH]c2c1CCCC2,-10.2%,-10.0%,0.3%,-4.4
CCN1CCN(C(=O)N(Cc2ccc(Cl)cc2)S(=O)(=O)c2ccc(C)cc2)CC1,·,-3.0%,0.5%,·
Cc1cc(C)nc(SCC(=O)Nc2ccccc2[N+](=O)[O-])n1,-3.4%,4.3%,-0.6%,2.7
CCN(CC)S(=O)(=O)c1cc(NS(=O)(=O)c2cc(Cl)ccc2Cl)ccc1C,8.2%,-8.6%,6.5%,-10.5
Cc1ccc(S(=O)(=O)NN/C(=N/S(=O)(=O)c2ccccc2)c2ccccc2)cc1,-3.4%,-3.9%,4.7%,3.4
O=C(O)c1cccc(-n2cnnn2)c1,-5.6%,0.4%,-2.3%,3.2
COc1cccc(NC(=O)C(C)NS(=O)(=O)c2ccc(Br)cc2)c1 (stereo not given),-1.7%,40.6%,0.0%,·
CC1(C)CC2CC(C)(CN2C(=O)COC(=O)c2cc(Cl)cc(Cl)c2N)C1 (stereo not given),-2.5%,-15.5%,-3.6%,10.2
Cc1nc(SCC(=O)OCc2ccccc2)c2c(=O)n(C)c(=O)n(C)c2n1,0.5%,-10.2%,-0.9%,-8.1
COC(=O)CCCn1nc(NC(=O)c2ccco2)cc1C,-14.0%,10.6%,3.9%,·
# (next part)
SMILES,miR-21 reporter,Rango release inh,Rango complex inh,GLA inh pH 4.5
O=C(Nc1cc(F)ccc1F)N1CCN(c2ccnc3cc(Cl)ccc23)CC1,20.6%,-21.9%,-3.6%,-1.0
Nc1ccccc1-c1ccn[nH]1,·,0.1%,1.1%,·
CN1CCN(c2nc3c(c(=O)n(C)c(=O)n3C)n2Cc2ccccc2Cl)CC1,-2.3%,1.2%,2.0%,·
CCOc1nc(SCCOc2ccc(C)cc2)nc(N(C)C)n1,-15.5%,0.9%,-2.1%,8.7
CCN(CC)S(=O)(=O)c1ccc(C(=O)NNC(=O)C2CCN(S(=O)(=O)c3ccc(Cl)cc3)CC2)cc1,0.2%,1.3%,2.5%,0.2
O=C(C(=O)N1CCc2ccccc2C1)c1c[nH]c2ccccc12,-46.8%,?,-0.3%,5.4
CC(=O)Nc1nonc1-c1nc2ccccc2n1Cc1nnc(C)o1,-5.3%,-5.6%,-4.5%,6.9
CCN(CC)CCCNC(=O)c1nn(-c2ccccc2OC)c(=O)c2ccccc12,-5.9%,6.8%,-7.3%,-2.7
COc1ccccc1C(=O)N1CCN(Cc2cn[nH]c2-c2ccc(F)cc2F)CC1,3.8%,-6.7%,-0.8%,1.6
Cc1cccc(Nc2nc3ccccc3s2)c1C,-52.7%,-0.4%,2.5%,5.1
Cc1ccccc1NS(=O)(=O)c1ccc(C(=O)N2CCC2)cc1,·,-15.3%,2.6%,·
CCC(=O)Nc1cc2c(cc1C(=O)CC)OCCO2,3.4%,1.0%,-0.3%,-6.5
CCOc1cnc(-c2c(-c3ccccc3Cl)noc2C)o1,13.7%,29.9%,2.5%,-3.0
NS(=O)(=O)c1ccc(CCNC(=O)CCCn2c(=O)[nH]c3ccc(Br)cc3c2=O)cc1,5.7%,10.7%,0.0%,-10.3
CC(N)C(=O)NC(CO)C(O)C(N)C=O (stereo not given),·,-4.5%,0.1%,·
CC(C)C(NC(=O)c1c(F)cccc1F)C(=O)NCCc1ccc(S(N)(=O)=O)cc1 (stereo not given),-1.6%,25.2%,-1.8%,·
CN(C)c1ccc(-c2nnc(-c3ccccc3F)o2)cc1,-32.0%,-26.9%,?,·
COCCCNC(=O)Cn1nc(-c2ccc(C)cc2)ccc1=O,-0.6%,-6.1%,1.8%,6.8
CC1CCCN(c2ncnc3c2cnn3-c2ccc(Cl)cc2)C1 (stereo not given),13.9%,21.2%,-2.7%,2.6
O=C(C1CCCCC1)N1CCCC(c2nc3c(nnn3Cc3ccccc3)c(=O)[nH]2)C1 (stereo not given),-6.8%,3.8%,0.7%,7.0
Cc1ccc(-c2nnc(SCC(=O)NNC(=O)COc3cccc(C)c3)n2C)cc1,-0.4%,-3.3%,1.0%,-10.8
CCc1ccc(OCC2c3cc(OC)c(OC)cc3CCN2C(=S)NC)cc1 (stereo not given),7.6%,4.4%,-2.5%,-18.0
COc1ccc(-c2nc3ncnn3cc2C)cc1F,-1.6%,6.7%,0.9%,2.6
Cc1cc(/C=C2/SC(=O)N(CC(=O)N3CCOCC3)C2=O)c(C)n1-c1ccccc1F,-32.9%,-5.0%,-1.3%,-6.6
C/C=C/C(=O)OCC(=O)Nc1cccc(Br)c1,1.5%,15.8%,2.3%,-5.4

# Record cards (already shown). Screens in order: miR-21 reporter	Rango release inh	Rango complex inh	GLA inh pH 4.5
# Shown for O=C(C1CCCCC1)N1CCCC(c2nc3c(nnn3Cc3ccccc3)c(=O)[nH]2)C1 (stereo not given) = -6.8%	3.8%	0.7%	7.0
# Shown for CCN(CC)CCCNC(=O)c1nn(-c2ccccc2OC)c(=O)c2ccccc12 = -5.9%	6.8%	-7.3%	-2.7
# Shown for CCc1ccc(OCC2c3cc(OC)c(OC)cc3CCN2C(=S)NC)cc1 (stereo not given) = 7.6%	4.4%	-2.5%	-18.0
# Shown for CN1CCN(c2nc3c(c(=O)n(C)c(=O)n3C)n2Cc2ccccc2Cl)CC1 = -2.3%	1.2%	2.0%	·
# Shown for CCOc1cnc(-c2c(-c3ccccc3Cl)noc2C)o1 = 13.7%	29.9%	2.5%	-3.0

# Later entries.
SMILES,miR-21 reporter,Rango release inh,Rango complex inh,GLA inh pH 4.5
COc1ccc(-c2nc3ccc(C(=O)NCC(OC)OC)cc3nc2-c2ccc(OC)c(OC)c2)cc1OC,-1.8%,?,?,·
COc1cccc(N2CCN(Cc3nc(N)nc(Nc4ccccc4OC)n3)CC2)c1,-1.7%,3.6%,?,1.7
CCOc1ccc(CC(=O)N2CCN(c3ccc(N4CCOCC4)nn3)CC2)cc1OCC,0.1%,-0.4%,?,14.8
CSCCC(NC(=O)c1ccc(Cl)cc1)C(=O)OCC(=O)N1CCCC1=O (stereo not given),·,-8.6%,-0.2%,·
CC(=O)c1c(C)[nH]c(C(=O)COC(=O)CCSc2ccccc2)c1C,-14.9%,0.4%,-3.5%,3.0
Cc1ccc(C2(C(F)(F)F)N=C3Sc4cc(C)ccc4N3C(=O)N2)cc1 (stereo not given),-7.9%,·,·,-0.8
COc1cccc(CN2CC(C(=O)N3CCCC3)CCC2=O)c1 (stereo not given),-5.9%,-8.5%,-1.0%,·
Cc1ccc(NC(=S)N(CCN(C)C)C(C)c2ccco2)cc1C (stereo not given),-14.9%,22.0%,5.9%,12.0
CC(C)(C)NC(=O)C[C@H]1C[C@H](C(=O)N2CCOCC2)[C@@]2(CCC3CCCC3)c3[nH]c4cc(-c5ccco5)ccc4c3CCN2C1=O,·,-3.7%,-6.4%,·
CC1(C)CC2CC(C)(CN2C(=O)COC(=O)CNC(=O)c2ccc(Cl)c(Cl)c2)C1 (stereo not given),6.4%,0.3%,-0.3%,-6.0
Cc1c(NC(=O)C(C)SC(=S)N2CCCC2)c(=O)n(-c2ccccc2)n1C (stereo not given),·,-9.4%,-3.5%,·
Cc1cccc(NC(=O)C2CCN(C(=O)c3ccc(Cl)cc3)CC2)n1,·,-11.7%,0.1%,·
Cc1cccc(C(=O)N=C2SC3CS(=O)(=O)CC3N2c2ccccc2)c1 (stereo not given),·,-2.9%,-2.0%,·
CCOC(=O)c1cc2sccc2n1CC(=O)C(C)(C)C,2.0%,-25.8%,-0.2%,-10.7
Cc1cc(-c2nnc(SCC(=O)Nc3ccc(Br)cc3F)n2N)n[nH]1,-6.5%,19.3%,3.5%,·
CCn1cc(/C=N/NC(=O)c2ccc(C#N)cc2F)c2ccccc21,-3.7%,-4.5%,5.1%,0.4
Cc1nc2cc(NC(=O)c3ccc(Cl)cc3)ccc2n1C,13.1%,14.0%,0.1%,·
COc1cccc(C(=O)Oc2ccc(N3C(=O)CCC3=O)c(C)c2)c1,0.2%,-14.3%,0.9%,2.8
COc1cc2c(cc1NC(=O)CN1C(=O)NC3(CCc4ccccc43)C1=O)oc1ccccc12 (stereo not given),?,8.9%,-1.3%,-5.3
Cn1nc(C(=O)Nc2ccc(-n3cnnn3)cc2)c2ccccc2c1=O,·,5.4%,-2.3%,·
CCOc1ccc(NS(=O)(=O)c2ccc(NC(=O)C3CCCO3)cc2)cc1 (stereo not given),7.4%,-1.1%,4.4%,-2.0
Cc1[nH]n(S(=O)(=O)Cc2ccccc2)c(=O)c1N=Nc1ccccc1Cl,-12.0%,-3.5%,4.6%,0.5
CCN1C(=NCc2ccco2)N[C@@H](c2cccc(C(F)(F)F)c2)C(C(=O)OC)=C1C,2.4%,?,?,·
CC(C)c1ccc(N(C(=O)c2cc3ccccc3oc2=O)C2C=CS(=O)(=O)C2)cc1 (stereo not given),-4.0%,-3.6%,-1.2%,0.9
Cc1cc(SCc2ccc(Br)cc2)nc(=O)[nH]1,-31.2%,0.7%,-1.7%,·
# (more compounds)
SMILES,miR-21 reporter,Rango release inh,Rango complex inh,GLA inh pH 4.5
O=C(CSc1nnc(CNC(=O)c2c(F)cccc2Cl)o1)NCCc1ccccc1,3.3%,19.0%,0.4%,·
Cc1nc(Nc2ccccc2)sc1C,-28.7%,15.0%,7.6%,-13.2
O=C(O)Cn1nc(-c2ccc(F)cc2)oc1=O,-2.6%,10.5%,1.6%,8.6
OC(CN1CCN(c2ncc(C(F)(F)F)cc2Cl)CC1)c1ccccc1 (stereo not given),4.0%,-19.9%,-1.1%,·
Cc1nnc2ccc(-c3cccc(NS(=O)(=O)c4ccccc4Cl)c3)nn12,·,0.4%,1.4%,·
Cc1ccc(O)c(/C=N/NC(=O)COc2ccc3c(C)cc(=O)oc3c2)c1,-6.7%,13.7%,1.2%,·
CC(=O)N(C(C)=O)c1cccc(N(Cc2ccccc2)Cc2ccccc2)c1,·,1.1%,-3.8%,·

# Screening data as filed in PubChem BioAssay.
